Screens: PubChem, Center for Chemical Genomics, University of Michigan
CDC25B CDK2 inh = primary biochemical HTRF screen for blockers of M-phase inducer phosphatase 2 binding to CDK2/cyclin A; P30305+P24941; z-score (test concentration not listed); HTRF CDC25B-CDK2/CyclinA binding, anti-His/anti-Flag; hits give high values; hit rate 0.72% among 94,000;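 also: score is relative to mean and SD of negative controls; strong numbers were not always called active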
HIV TAR-Tat = TAR RNA-Tat peptide displacers, HIV-1, primary screen, biochemical, FRET, FAM/TAMRA-labeled Tat; AID 1259389, 2018; hit rate 0.6% among 100,000; z-score (test concentration not listed); HIV-1 TAR RNA, Tat peptide displacement FRET; hits give high values;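 also: score is relative to mean and SD of negative controls; some compounds called inactive have numbers as strong as hits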
* = called active by the depositor; . = no result given.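 The calls were made as follows: active = z-score from 3 up in half or more of its runs; inactive = the rest.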

Results follow in this order: HIV TAR-Tat | CDC25B CDK2 inh
> O=C(CN1CCSc2ccccc21)N1CCN(c2ccccc2)CC1
 : 0.89 | .
> CCCOC(=O)C1=C(C)NC2=C(C(=O)CC(C)(C)C2)C1c1ccc(Cl)cc1 (stereo not drawn)
 : 3.04 | -1.51
> COc1ccc(Br)c(C(=O)/C(C#N)=N/Nc2ccc(F)cc2)c1
 : . | -2.14
> COC(=O)c1sccc1S(=O)(=O)Nc1ccc(OC)cc1OC
 : 0.42 | .
> CN(C)c1cc(C(F)(F)F)cnc1/C(N)=N/O
 : . | -2.11
> O=C(Nc1ccc(F)cc1F)C1CCCN(C(=O)c2cnn(-c3ccc(F)cc3)c2-n2cccc2)C1 (stereo not drawn)
 : 2.28 | .
> O=S(=O)(c1cccc(C(F)(F)F)c1)n1nc(C(F)(F)F)c2cnccc21
 : . | -2
> CCC(CC)C(=O)Nc1ccc2nsnc2c1
 : -0.34 | -1.26
> COc1ccc(N2CCN(S(=O)(=O)c3ccc(-c4ccc(=O)[nH]n4)s3)CC2)cc1
 : -0.47 | .
> CCOC(=O)c1cc2ccccc2n1CCN(C)C
 : -0.09 | -0.59
> CCOC(=O)c1ccc(N2C(=O)c3n[nH]c(C)c3C2c2cccs2)cc1 (stereo not drawn)
 : 0.22 | .
> O=c1cc(CSc2nc3ccncc3[nH]2)nc2ccccn12
 : -0.39 | 0.74
> O=C1C2C(c3cccs3)NC(Cc3ccccc3)(C(=O)O)C2C(=O)N1c1ccc(F)cc1 (stereo not drawn)
 : -1.42 | -0.08
> O=C(O)C1CCN(C(=O)Nc2ccc(F)cc2)CC1
 : 0.68 | -0.61
> Cc1cc(=O)n2c(-c3ccc(Cl)cc3)csc2n1
 : . | -1.8
> CS(=O)(=O)N(CC(=O)Nc1ccccc1C(=O)O)c1cccc(C(F)(F)F)c1
 : . | 0.86
> COc1ccc(CCN2CC(=O)N3CCCC(c4cc(O)ccc4O)=C3C2=O)cc1OC
 : . | 0.45
> COC(=O)c1sc(-c2ccccc2)cc1N
 : 16.9 | -5.7
> Fc1ccc(-c2noc3ncnc(N4CCN(Cc5ccc6c(c5)OCO6)CC4)c23)cc1
 : -0.46 | .
> COc1ccccc1C(=O)OC1=CN(C(C)C)S(=O)(=O)c2ccccc21
 : -0.91 | -0.56
> Cc1cccc(NC(=O)c2nn(C)c3c2COc2ccccc2-3)n1
 : -0.03 | -1.47
> Cc1cc(C)cc(OC(C)C(=O)Oc2cccc(-n3cnnn3)c2)c1 (stereo not drawn)
 : 0.34 | 1.75
> Cn1c(C(=O)NC(C)(C)C)cc2c(=O)n3ccccc3nc21
 : 1.28 | .
> COc1cccc(-n2cnc3c(sc4nc(N5CCOCC5)c5c(c43)CC(C)(C)OC5)c2=O)c1
 : -0.68 | -3.65
> Cc1ccc(CSc2nnc(NC(=O)c3csnn3)s2)cc1
 : 0.29 | -2.12
> Cc1nn(CCCC(=O)NCc2cccnc2)c(=O)c2cc3occc3n12
 : 0.6 | 0.32
> CCc1nn(CC(=O)N2CCN(c3ccccn3)CC2)c(=O)c2cc3occc3n12
 : 2.54 | -1.2
> c1ccc(-c2ccccc2NC2=NCCS2)cc1
 : . | -1.75
> Cc1cc(OCc2cc(=O)n3ccsc3n2)cc(C)c1Cl
 : 3.83 | -2.53
> CC1=C(C(=O)Nc2ccc(Cl)cc2C(=O)N2CCc3ccccc32)SCCO1
 : 0.41 | .

Other results follow.
Results follow in this order: HIV TAR-Tat | CDC25B CDK2 inh
> Cc1oc2ncnc(N3CCOCC3)c2c1C(=O)NC(C)C
 : 0.49 | .
> CCc1ccc(S(=O)(=O)c2c[nH]c3ccc(F)cc3c2=O)cc1
 : -1.09 | -1.66
> Cc1nc2cccnc2n1C1CCN(C(=O)Nc2ccc(F)cc2)CC1
 : 0.49 | .
> O=c1c(-c2ccc(O)cc2)coc2cc(O[C@@H]3O[C@H](CO)[C@@H](O)[C@H](O)[C@H]3O)ccc12
 : 2.59 | .
> Cc1cccc(NS(=O)(=O)c2cc(-c3cc(C)no3)ccc2C(C)C)c1
 : 0.66 | .
> Cc1c(C(=O)NCCN2CCOCC2)oc2c1-c1[nH]ncc1CC2
 : 0.27 | -0.01
> CC(C)CCn1c(CCNC(=O)C(C)(C)C)nc2ccccc21
 : 0.1 | -0.72
> O=C(NCc1n[nH]c(=O)c2ccccc12)C1CCCC1
 : 0.15 | .
> O=C1c2oc3ccccc3c(=O)c2C(c2ccc(F)cc2)N1Cc1ccc2c(c1)OCO2 (stereo not drawn)
 : 0.36 | 0.35
> CCOC(=O)Cc1c(C)nc2c(C#N)c(C)nn2c1C
 : -0.73 | 1.84
> COc1ccc(-n2c(CSc3nc(C)cc(C)n3)nnc2SCC(N)=O)cc1
 : 0.91 | -0.84
> CC(CC(=O)N1CCc2ccccc2C1)S(=O)(=O)c1ccc2c(c1)NC(=O)CO2 (stereo not drawn)
 : 1.42 | .
> Cc1ccc(-c2nnc(SCc3cc(=O)c4cccc(Cl)c4[nH]3)n2C)cc1
 : 0.57 | .
> Cn1c(=O)[nH]c(=O)c2c1nc(N)n2CCOc1ccccc1
 : 1.15 | 1.57
> COc1ccc(C2=C(C)C(Nc3cc(OC)ccc3OC)=NS2(=O)=O)cc1
 : 1.45 | -1.54
> CCCNC(=O)c1ccc(N2CCSc3ncccc32)s1
 : -0.66 | .
> CCCn1c(=O)c(-c2noc(-c3ccc(Cl)cc3)n2)nn(-c2ccccc2)c1=O
 : . | -1.63
> CN1CCN(CCCN2C(=O)CSC2c2ccc(F)cc2)CC1 (stereo not drawn)
 : 2.09 | -0.48
> CCn1c(=O)oc2cc(NS(=O)(=O)c3cnc[nH]3)ccc21
 : -1.15 | .
> CC(=O)c1cccc(NC(=O)C(C(C)C)N2C(=O)c3ccccc3C2=O)c1 (stereo not drawn)
 : . | -1.05
> CC1CCN(c2nc(-c3ccccc3F)no2)CC1
 : 2.64 | .
> O=c1sc2ccccc2n1Cc1nnc(-c2ccccc2Cl)o1
 : 1.47 | 1.55
> CCCC(=O)N1CCS(=O)CC1
 : -0.86 | -1.17
> CCOC(=O)c1cc(-c2ccc(S(=O)(=O)NCc3ccccn3)s2)on1
 : 0.29 | .
> O=C(CCCn1ncn2c(cc3occc32)c1=O)NCc1ccccc1Br
 : -0.57 | -2.09
> CCn1nc(C)c(CCNC(=O)CCC(=O)N2CCCn3nc(-c4cccn4C)cc32)c1C
 : 1.25 | .
> O=C(NC1CCCCC1)c1ccc(CS(=O)Cc2ccc(Cl)cc2)o1 (stereo not drawn)
 : 2.1 | .
> CN(C(=O)CSc1nc(C2CCCC2)nc2c1c(=O)n(C)c(=O)n2C)c1ccccc1
 : 1.06 | .
> CC1=C(C(=O)OC(C)C)C(c2ccc(C)cc2)N2C(=O)CCSC2=N1 (stereo not drawn)
 : . | -0.46
> O=C(c1cc2c(s1)-c1ccccc1S(=O)(=O)C2)N1CCC(N2CCCCC2)CC1
 : 1.62 | -3.42

(listing goes on)
Results follow in this order: HIV TAR-Tat | CDC25B CDK2 inh
> COc1ccc(CCNC(=O)c2ccc3nccnc3c2)cc1OC
 : . | -2.14
> Cc1nn(-c2nc3ccccc3o2)c2c1C(c1cc(F)ccc1F)CC(=O)N2 (stereo not drawn)
 : 1 | .
> NCCS
 : 0.79 | -1.97
> CSc1ncc(Cl)c(C(=O)Nc2nc3ccc(Cl)cc3s2)n1
 : 2.93 | -0.96
> CCOc1cc(C2Nc3c(C)cc(C)cc3-c3cc(C)nn32)ccc1O (stereo not drawn)
 : 2.78 | -1.84
> CCOC(=O)c1c(C)[nH]c(C)c1S(=O)(=O)NCCSCc1ccco1
 : -0.28 | .
> Cc1ccccc1C(=O)OCc1cc(=O)n2nc(C(C)C)sc2n1
 : -0.4 | .
> CCCOc1ccc(-c2cccc(NS(=O)(=O)c3ccccc3F)c2)nn1
 : -0.12 | .
> CC(Nc1nc2c(S(=O)(=O)c3ccccc3)nnn2c2ccccc12)c1ccccc1 (stereo not drawn)
 : 1.12 | -0.14
> CCSc1nc2c(c(=O)[nH]1)C(c1cc(C)ccc1C)CC(=O)N2 (stereo not drawn)
 : 1.2 | -0.23
> COc1cc2c(cc1OC)CN(S(=O)(=O)c1cccc(F)c1)CC2
 : . | -2.46
> COc1cccc(-c2noc(N3CCN(Cc4ccc5c(c4)OCO5)CC3)n2)c1OC
 : 0.7 | .
> CC(C)OCCCNc1ncnc2c1nc1n2CCCC1
 : 1.05 | .
> CCN1CCCC1CNC(=O)C1CCN(c2nnc(-n3cccc3)s2)CC1 (stereo not drawn)
 : -0.48 | -2.15
> Cc1cccc(N2CCN(S(=O)(=O)c3cc(-c4cc(C)no4)ccc3C)CC2C)c1 (stereo not drawn)
 : 0.43 | .
> CN(C)CCOc1ccc(/C(=C(/CCCl)c2ccccc2)c2ccccc2)cc1
 : 0.22 | .
> CCOc1ccccc1C1C(C(=O)OCC2CCCO2)=C(C)NC2=C1C(=O)CCC2 (stereo not drawn)
 : 1.79 | -1.57
> CN(C)CCNC(=O)Cn1ncc2c(=O)oc3ccccc3c21
 : 0.42 | -0.5
> Oc1c(C2=NNC(c3ccccc3)C2)ccc2ccccc12 (stereo not drawn)
 : . | -2.84
> O=C1c2ccccc2C(=O)C1C(c1ccccc1)C1C(=O)c2ccccc2C1=O
 : 2.12 | 0.93
> O=C(CC1SC(=O)NC1=O)Nc1cccc(C(F)(F)F)c1 (stereo not drawn)
 : . | -0.86
> COC(=O)c1cccc(NC(=O)CC23CC4CC(C2)CC(CC(=O)Nc2cccc(C(=O)OC)c2)(C4)C3)c1
 : . | -3.22
> Cc1ccc(-c2c(N3CCN(c4ccccn4)CC3)c(=O)c2=O)cc1C
 : 1.43 | .
> O=C(c1cc(-c2cccs2)[nH]n1)N1CCN(c2ncccn2)CC1
 : -0.99 | .
> CCOC(=O)c1c(C)c(C(=O)NCC2CCCO2)c(C)n1C (stereo not drawn)
 : . | -2.16
> CSc1nc(-c2ccccc2)c(C#N)c(N2CCOCC2)n1
 : 0.82 | -1.19
> O=C1/C(=C/c2ccccc2)CC/C1=C\c1ccccc1
 : . | -0.74
> COc1ccc(N2C(=O)CC(SCC(=O)Nc3ccc(Br)cc3)C2=O)cc1 (stereo not drawn)
 : 0.21 | -0.84
> COc1ccc(-c2noc(-c3ccc4c(c3)OCO4)n2)cc1OC
 : 0.05 | -1.5
> CCCCN1C(=O)CCC1(C)C(=O)NCCC(C)C (stereo not drawn)
 : -1.51 | -1.02

An excerpt of these results, in CSV form:
Molecule,HIV TAR-Tat,CDC25B CDK2 inh
CS(=O)(=O)N(CC(=O)Nc1ccccc1C(=O)O)c1cccc(C(F)(F)F)c1,.,0.86
Cc1c(C(=O)NCCN2CCOCC2)oc2c1-c1[nH]ncc1CC2,0.27,-0.01
CCSc1nc2c(c(=O)[nH]1)C(c1cc(C)ccc1C)CC(=O)N2 (stereo not drawn),1.2,-0.23
CCOC(=O)c1cc(-c2ccc(S(=O)(=O)NCc3ccccn3)s2)on1,0.29,.
O=C(CC1SC(=O)NC1=O)Nc1cccc(C(F)(F)F)c1 (stereo not drawn),.,-0.86
CCOC(=O)Cc1c(C)nc2c(C#N)c(C)nn2c1C,-0.73,1.84
COc1ccc(Br)c(C(=O)/C(C#N)=N/Nc2ccc(F)cc2)c1,.,-2.14

More results.
Results follow in this order: HIV TAR-Tat | CDC25B CDK2 inh
> COCCNC(=O)c1noc(C)c1Cn1nc(C)cc1C
 : 0.34 | .
> COc1cc(NS(=O)(=O)c2ccc(-c3ccc(=O)[nH]n3)s2)cc(OC)c1
 : 1.29 | .
> COc1ccc(C2C(C#N)=C(N)Nc3onc(C(C)(C)C)c32)c(OC)c1 (stereo not drawn)
 : . | 0.37
> Cc1cc(C)nc(Nc2ccc(Br)cc2C(=O)O)n1
 : 1.02 | 0.91
> Fc1ccc(Cn2cc3c(-c4ccc5c(c4)OCO5)nnc-3c3ccccc32)cc1
 : 1.56 | -1.03
> CC1=C(C(=O)Nc2ccc(Br)cc2F)C2(CCCCC2)OC1=O
 : 0.49 | -0.77
> Cc1nn(CC(=O)NCCCOC(C)C)c(=O)c2c1sc1ccccc12
 : 1.31 | -2.4
> Cc1c(C(=O)N2CCC(C)CC2)c(S(=O)(=O)NC(C)C)c(C)n1C
 : 1.71 | .
> CCn1ncc(Br)c1C(=O)NC1CCCCC1
 : . | -1.04
> CSc1nc2nccc(NC(=O)c3cccc(C)c3)n2n1
 : . | 0.1
> O=C(CN1C(=O)c2cccnc2Oc2ccccc21)N1CCc2ccccc21
 : 2.27 | .
> CN(C)c1ccc(/C=C(\C#N)C(=O)c2cccs2)cc1
 : . | -2.24
> COc1ccc(-c2cc(=O)c3c(OC(C)=O)cc(OC(C)=O)cc3o2)cc1
 : 1.96 | .
> CCCc1nn2c(=O)cc(CSc3n[nH]c(-c4ccccc4F)n3)nc2s1
 : 0.16 | .
> O=C(Nc1ccccc1)N1CCSc2ncccc21
 : 1.92 | .
> O=C(NCCN1CCCCC1)c1nnsc1NC(=O)N1CCOCC1
 : 0.61 | .
> CCOc1ccc(-c2nn(-c3ccccc3)cc2C2NC(=O)NC(C)=C2C(=O)OC(C)C)cc1C (stereo not drawn)
 : . | 0.23
> C=Cc1ccc(CN2C(=O)N(c3cc(OC)cc(OC)c3)S(=O)(=O)c3ccccc32)cc1
 : -0.89 | .
> CCOc1ccc(-n2nnnc2CNC(=O)NCc2cccs2)cc1
 : 2.12 | .
> Cc1ccc(C2CC(=O)Oc3c2c(=O)n(C)c2ccccc32)cc1 (stereo not drawn)
 : 0.09 | -1.48
> O=C(Cn1cnc(S(=O)(=O)N2CCCC2)c1)Nc1ccc(F)cc1F
 : 0.86 | .
> CC(=O)c1c(C)cc2cc(C)cc(O)c2c1O
 : . | -1.17
> Cc1c2cnn(-c3ccccc3)c(=O)c2c(C)n1C(C)C(=O)NCCN1CCCC1 (stereo not drawn)
 : -0.23 | 0.56
> Cc1cc2cc([N+](=O)[O-])ccc2[nH]1
 : . | -1.01
> O=C(Nc1ccc(Cl)cc1)Nc1csc([N+](=O)[O-])c1
 : . | -0.26
> COc1cccc(OCCCSc2nc3ccccc3[nH]2)c1
 : 0.83 | 0.33
> CCOc1ccc(C2c3c(oc4cc(C)cc(C)c4c3=O)C(=O)N2Cc2ccco2)cc1 (stereo not drawn)
 : 1.5 | -1.15
